hNpr1 antagonist: blocks ANP-stimulated signaling of human Npr1 receptor. P16066. HEK293 hNpr1 GloSensor cGMP, ANP-stimulated luminescence. Potency, µM (titrated, usually from 46.3 µM), inactives show at the top dose activity change, negative = inhibition, usual class: inhibitors. 1.6% of 76,000 active. AID 1347048; active = well fitted inhibition curve with a large enough effect; inconclusive = small, poorly fitted or top-dose-only effect; inactive = no such curve, though single readings can be large or run the other way;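 also: nearly all actives have a fitted effect of over 60% in size; nearly all hits also lower the signal before the agonist is added; a reference antagonist and vehicle were the controls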
Target sequence (P16066 whole entry, looked up): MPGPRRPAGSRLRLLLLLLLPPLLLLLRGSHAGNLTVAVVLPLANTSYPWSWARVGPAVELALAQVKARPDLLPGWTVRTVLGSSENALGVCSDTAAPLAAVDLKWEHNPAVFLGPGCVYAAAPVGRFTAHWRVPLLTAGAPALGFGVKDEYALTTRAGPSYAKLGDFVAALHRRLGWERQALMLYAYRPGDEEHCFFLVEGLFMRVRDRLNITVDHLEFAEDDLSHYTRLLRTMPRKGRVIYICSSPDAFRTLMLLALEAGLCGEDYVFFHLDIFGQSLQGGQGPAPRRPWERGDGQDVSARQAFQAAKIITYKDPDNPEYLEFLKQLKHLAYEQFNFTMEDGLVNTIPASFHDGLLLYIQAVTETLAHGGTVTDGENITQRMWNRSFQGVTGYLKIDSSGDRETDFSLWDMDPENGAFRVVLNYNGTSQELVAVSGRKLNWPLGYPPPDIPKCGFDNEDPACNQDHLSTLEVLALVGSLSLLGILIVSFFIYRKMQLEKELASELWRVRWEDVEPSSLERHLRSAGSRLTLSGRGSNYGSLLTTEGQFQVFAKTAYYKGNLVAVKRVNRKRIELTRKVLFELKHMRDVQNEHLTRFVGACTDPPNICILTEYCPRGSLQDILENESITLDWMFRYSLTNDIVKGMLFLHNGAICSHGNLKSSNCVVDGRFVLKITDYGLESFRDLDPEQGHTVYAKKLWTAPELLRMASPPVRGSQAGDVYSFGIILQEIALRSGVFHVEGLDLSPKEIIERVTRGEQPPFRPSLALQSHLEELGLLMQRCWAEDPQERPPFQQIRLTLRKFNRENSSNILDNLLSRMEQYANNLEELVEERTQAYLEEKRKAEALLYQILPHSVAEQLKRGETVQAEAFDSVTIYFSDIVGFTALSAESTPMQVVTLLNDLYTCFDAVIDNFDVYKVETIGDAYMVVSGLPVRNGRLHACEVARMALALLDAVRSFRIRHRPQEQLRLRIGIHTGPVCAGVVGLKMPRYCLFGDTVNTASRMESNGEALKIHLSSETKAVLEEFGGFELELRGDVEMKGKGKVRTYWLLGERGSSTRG
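HEK293 cells stably expressing human Npr1 and cGMP GloSensor pGS-40F, loaded 2 h with 2% GloSensor reagent, given compound 30 min at room temperature. Luminescence read before and 20 min after 0.1 nM hNppA.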
An asterisk follows results filed as active; ? = inconclusive; [ ] = dose if it differs, or a comment. % is scaled to controls: 0 for no effect and ±100 for the full control effect; potency is read from the fitted curve at half-maximal effect. Not all compounds are listed (hit frequency here may not be typical).

Preview, 4 compounds:
molecule	hNpr1 antagonist
C[C@H]1[C@@H]2[C@H]3OC(=O)[C@@H](C)[C@@H]3CC[C@@]2(C)CC[C@@H]1NC(=O)c1cncnc1	5%[70.6 µM]
CN(Cc1ccccc1)C(=O)C1CCCN(c2cnn(Cc3ccccc3)c(=O)c2)C1 (configuration not stated)	-3%
Cn1nc(C2CCN(C(=O)c3cc(F)ccc3F)CC2)c2c1CCOC2	4%
COc1ccc(-c2ccc3ncc(Nc4ccncc4)n3n2)cn1	-3%[70.6 µM]

The list itself, previewed entries included:
molecule	hNpr1 antagonist
C[C@H]1[C@@H]2[C@H]3OC(=O)[C@@H](C)[C@@H]3CC[C@@]2(C)CC[C@@H]1NC(=O)c1cncnc1	5%[70.6 µM]
CN(Cc1ccccc1)C(=O)C1CCCN(c2cnn(Cc3ccccc3)c(=O)c2)C1 (configuration not stated)	-3%
Cn1nc(C2CCN(C(=O)c3cc(F)ccc3F)CC2)c2c1CCOC2	4%
COc1ccc(-c2ccc3ncc(Nc4ccncc4)n3n2)cn1	-3%[70.6 µM]
COc1ccc(CN2CCN(C(=O)[C@H]3CCC[C@@H](O)C3)CC2=O)cc1	4%
CCc1noc(-c2ccn3c(CNC(=O)c4ccc(N(CC)CC)cc4)nnc3c2)n1	0%
Cc1nc(N2CCN(C(=O)c3ccc(F)cc3Cl)CC2)cc(C(F)(F)F)n1	3%
CCCN(CC1CCOC1)C(=O)Nc1cccc(Cl)c1F (configuration not stated)	-9%
COCCn1cnc2ccc(-c3ccc(F)cc3OC)nc2c1=O	-3%[70.6 µM]
CCCC1c2nccn2CCCN1C(=O)c1cc(C2CC2)[nH]n1 (configuration not stated)	3%
CN1C(=O)CCC2(CNC(=O)c3ccco3)CCC=C12 (configuration not stated)	-2%
COCCNC(=O)C1CCC(=O)N1C1CCNCC1 (configuration not stated)	5%
COc1ccccc1N1CCN(C(=O)C[C@@H]2CCNC[C@@H]2Cc2cc(-c3ccccc3)on2)CC1	-8%
C#CCN(C)C(=O)CC1COc2ccc(C(=O)N3CCOCC3)cc2N1C (configuration not stated)	2%
Cn1cnnc1CC1CCCN(C(=O)c2ccccc2)C1 (configuration not stated)	-1%
C#CCN(C)C(=O)[C@@H](C)C1CC[C@@]2(C)Cc3sc(NCCCC)nc3[C@@H](C)[C@@H]2[C@H]1O (some centres not stated)	-20%[70.6 µM]
CC(=O)N1CCC(N2C[C@@H]3OCC(=O)N(CC(N)=O)[C@@H]3C2)CC1	8%[70.6 µM]
Cc1cc(C)n(-c2ccc(F)cc2CN2CCCC(CO)(Cc3ccccc3)C2)n1 (configuration not stated)	-9%
CNC(=O)CCn1ncc2cc(OCc3ccccc3-c3ccccc3Cl)ccc21	-14%[70.6 µM]
Cc1ccc(NC(=O)N2CCC(CCNC(=O)c3cccc(C)c3)CC2)cc1	5%
CNC(=O)[C@@H](c1ccccc1)N1CCC[C@H]1C(=O)N[C@@H](CO)CC(C)C	1%[70.6 µM]
O=C(C[C@@H]1O[C@H](CNS(=O)(=O)c2ccccc2)[C@@H](O)[C@H]1O)N1CCN(c2ccccc2)CC1	6%
CCN1C(=O)C2(CCN(S(=O)(=O)CC)CC2)c2ccccc21	3%
O=C1c2cnc(Cc3ccccc3)nc2OCCN1c1cccc(C(F)(F)F)c1	-17%[70.6 µM]
COc1ccc(-c2noc([C@@H]3CCCN3Cc3ccc(S(C)(=O)=O)cc3)n2)cn1	2%[70.6 µM]
Cc1ccc(C(=O)NCCn2cccc2-c2nc(-c3ccc4c(c3)OCO4)no2)cc1C	-23%
CCc1nc(C)c(C(=O)N2CC[C@@](O)(COC)C(C)(C)C2)s1	5%
COc1ccc(Nc2nc(-c3cccc(OC)c3OC)no2)cc1	-17%
O=S(=O)(NC[C@H]1O[C@@H](CO)[C@@H](O)[C@H]1N1CCN(c2ccc(F)cc2)CC1)c1ccc(F)cc1	4%
CC(=O)N1CCOc2ccc(CCC(=O)NCCc3ccccn3)cc2C1	2%
Cc1nc(CCNC(=O)CCC2CCCC2)no1	-14%
CC(=O)c1cccc(NC(=O)Cn2cccc2-c2nc(-c3ccc4c(c3)OCO4)no2)c1	-3%
O=C1CC2(CCN(C(=O)c3ccc4c(c3)OCO4)CC2)Oc2ccccc2N1	-20%
COc1ccc2c(=O)n(CC(=O)N(C)Cc3cc(C)no3)ccc2c1OC	4%
CCN(CC1CCCO1)C(=O)c1ccc2nc(-c3ccc(F)cc3)cn2c1 (configuration not stated)	2%
COC(=O)[C@@H]1Cc2nc[nH]c2CN1Cc1cc2ccccc2o1	4%[70.6 µM]
O=C(OCc1ccccc1)N1CCC(Oc2cnc3c(ccn3-c3cncnc3)c2)CC1	?
O=C(NCCOc1ccccc1)c1cnc2n1CCN(Cc1c[nH]c3ccccc13)CC2	?
CCc1nc2c(c(-c3ccc(O)cc3)n1)CCN(C(=O)c1ccc(F)cc1)CC2	1%
O=C(Nc1ccc(Oc2ccccc2)cc1)N[C@H]1CO[C@H]2[C@@H]1OC[C@@H]2Nc1nccc(-c2ccc(-c3ccccc3)cc2)n1	2%
COCCOc1ccc2c(n1)CCN(C(=O)c1ccc(OC)c(OC)c1)C2	2%
O=C(c1cccnc1)N1CCCC2(CNc3ccccc3[S+](=O)([O-])N2)C1 (configuration not stated)	11%
O=C(NC1CCCC1)N1CCC(c2noc(-c3ccccc3)n2)C1 (configuration not stated)	?
CN1c2cc(C(=O)Nc3ccc(S(N)(=O)=O)cc3)ccc2C(=O)N2CCCCC21 (configuration not stated)	-1%
COc1ccc(OC)c(NC(=O)Cn2c(=O)n(-c3ccccc3)c(=O)c3c2cc(C)n3C)c1	3%
CN1C(=O)CCC2(CNC(=O)c3ccoc3)CCC=C12 (configuration not stated)	6%
O=C(CCCc1ccccc1)NCCC1CCN(C(=O)Nc2cc(F)cc(F)c2)CC1	-17%
Cc1cc(C)n(CC(=O)N2C[C@@H](CO)[C@H](c3nc(C4CC4)no3)C2)n1	7%
CCC(C)C(=O)NC1CCN(c2cnn(CCOC)c(=O)c2)CC1 (configuration not stated)	-12%
CCc1noc(-c2cn(C3CCN(C(=O)c4ccc(F)c(Cl)c4)C3)nn2)n1 (configuration not stated)	-25%

Continuation:
molecule	hNpr1 antagonist
O=C(N[C@@H]1CN(Cc2ccccc2)C[C@H]1CO)c1ncccn1	-3%
O=C([C@@H]1C[C@H](F)CN1C(=O)NCc1cccc(F)c1)N1CCCCC1	1%
O=C(Nc1nccs1)[C@@H]1C[C@H](c2ccc(F)cc2)N(Cc2ccccc2Cl)C1	-3%[70.6 µM]
CC(C)CNC(=O)N1CCCCC1c1nc(CCOc2ccc(F)cc2)no1 (configuration not stated)	-24%
Cc1nc(-c2ccccc2)n(CC(=O)Nc2cccc(C#N)c2)c(=O)c1CCO	-21%
Cc1ccc(C)c(NC(=O)Cn2c(N3CCN(c4ccccc4)CC3)nc(C)cc2=O)c1	7%
O=C1CC(c2ccccc2)N(C(=O)C2CC2)CCCN(C(=O)Cc2cccc(F)c2)CCN1 (configuration not stated)	5%
C=CCCC(CN1CCSCC1)Oc1nc(OC)cc(OC)n1 (configuration not stated)	?
CN(C)c1cccc(-c2cn(C)c(=O)n3cc(COc4ccc(Cl)cc4)nc23)c1	-3%[70.6 µM]
COc1ccc(CN2CCc3nc(N4CCN(C)CC4)[nH]c(=O)c3CC2)cc1OC	2%
O=C1CC(C(=O)NCc2cc3n(n2)CCN(C2CCCCC2)C3)C2(CCCC2)O1 (configuration not stated)	-1%
CN(C)CCNC(=O)c1n[nH]c2c1CN(C(=O)c1cc(F)ccc1F)CC2	2%
Cc1nc(C(C)C)sc1CNC(=O)C1CCC(=O)N(C2CCCC2)C1 (configuration not stated)	1%
CCc1nnc2ccc(NCC3CCCO3)nn12 (configuration not stated)	4%
CCn1ccnc1CN(C)Cc1cn(Cc2ccccc2)nc1-c1ccc2c(c1)OCO2	-10%
Cc1nnnn1CCC(=O)N[C@H]1[C@H]2CCO[C@H]2[C@@H]1N1CCCCC1	-2%
CCS(=O)(=O)N1CCOCCNC(=O)[C@H]2CCCC[C@H]21	1%
Cn1nc(C(=O)N2CCCOCCNC(=O)CC2)c2ccccc21	11%
COCC(=O)N(C1CCOCC1)C1CCN(C(=O)Cc2ccccc2Cl)CC1	1%
COCc1nnc2n1CCC(NC(=O)C1(c3ccc(OC)cc3)CC1)CC2 (configuration not stated)	5%
Cc1nn(CC(=O)NCCCN2CCCCC2)c(=O)c2nc(-c3ccccc3)sc12	3%
Cc1cc(C[C@@H]2COC[C@@H]2NC(=O)c2ccc(-c3noc(C4CC4)n3)cc2)on1	4%
COc1ccc(CCNC(=O)c2c(C)noc2-c2ccc3c(c2)OCO3)cc1OC	-3%
Cc1noc2c(NCCN3CCOCC3)cc(-c3ccsc3)nc12	10%[70.6 µM]
CCN(C)C(=O)Cn1ncc(N2CCOC(CCN)C2)cc1=O (configuration not stated)	1%
N#Cc1ccc(C(=O)N2CCCN(C(=O)C3CC3)C(c3ccccc3)CC(=O)NCC2)cc1 (configuration not stated)	0%
O=C1Nc2ccccc2OCC12CCN(Cc1cccc3ccccc13)CC2	0%
COc1cccc(CNC(=O)[C@@H]2C[C@@H](O)CN2C2CCN(C(=O)C3CCCCC3)CC2)c1	4%
CN(Cc1cnc2ccccc2n1)C(=O)c1cccc(CCC(C)(C)O)c1	-2%
COc1ccccc1C(=O)N1CCN(c2cc(-c3ccc(F)cc3)[nH]n2)CC1	0%
CCOC(=O)c1ccc(NC(=O)Cn2c(C)cc3nc4n(c(=O)c32)CCCCC4)cc1	9%
COC[C@@H]1CN(C(=O)c2ccc3ncccc3c2)C[C@H]1c1ccncc1	1%
Cc1noc(C)c1CN1CCc2nc(C(=O)Nc3ccccc3)oc2CC1	18µM*
CC1(c2ccccc2)N(Cc2ccccc2C#N)C(=O)OC12CCN(C(=O)Cc1ccc3c(c1)OCO3)CC2 (configuration not stated)	-1%
O=C1CC(c2ccccc2)N(C(=O)CNS(=O)(=O)c2cccs2)CCCCCCN1 (configuration not stated)	1%
COCCn1c(C)cnc1C1CCNC1 (configuration not stated)	4%
CCN(CCN(C)C)C(=O)c1cn(CC2COc3ccccc3O2)nn1 (configuration not stated)	1%
O=C(NCC1CC1)c1cccc(OC2CN(Cc3cncs3)C2)c1	4%
O=C(O)c1ccc(CN2CCC3(CC2)CC(C(=O)O)N(C(=O)C2CC2)C3)cc1 (configuration not stated)	2%
CNC(=O)[C@@H]1CN(C(=O)c2ccc(C)c(C)c2)C[C@H]1CO	6%
Cc1ccc(C(=O)Nc2cccc(-c3nnc4n3CCCC4)c2)cc1	-5%
Cc1cc(C(F)(F)F)nn1CC(=O)NCCn1c(C)cnc1C1CCC1	-1%
N#Cc1ccc(C(=O)Nc2ccc([C@@H](O)[C@H]3COCC(=O)N3Cc3ccc(F)cc3)cc2)cc1	0%
Cc1cc(-c2nccc3c(=O)cc(N(C)c4ccccc4)oc23)ccn1	-1%[70.6 µM]
Cc1nc(C)c(C(=O)N2CCC[C@H](n3c(=O)n(Cc4ccccc4)c4cccnc43)C2)s1	-8%
COCC1CN(S(=O)(=O)Cc2ccc(F)cc2)CC12CCNCC2 (configuration not stated)	-1%
COCCNC(=O)c1cnc2n[nH]c(-c3ccccc3OC)c2n1	-2%[70.6 µM]
CN1Cc2ncnc(NCC3CC3)c2CN(c2ccccc2)C1=O	5%[70.6 µM]
COc1ccccc1C(=O)N1CCC2(CC1)OC(=O)N(CCOc1ccccc1)C2(C)c1cccnc1 (configuration not stated)	-2%
CCN1CCc2[nH]cnc2C12CCN(C(=O)Cc1c[nH]c(=O)[nH]c1=O)CC2	4%

Part of the list above in order of heavy-atom count, rising.
molecule	hNpr1 antagonist
COc1ccc(Nc2nc(-c3cccc(OC)c3OC)no2)cc1	-17%
COC[C@@H]1CN(C(=O)c2ccc3ncccc3c2)C[C@H]1c1ccncc1	1%
COCC(=O)N(C1CCOCC1)C1CCN(C(=O)Cc2ccccc2Cl)CC1	1%
COc1cccc(CNC(=O)[C@@H]2C[C@@H](O)CN2C2CCN(C(=O)C3CCCCC3)CC2)c1	4%

Further records follow.
molecule	hNpr1 antagonist
CCn1ncc(N2CCCC(CC(=O)NCc3ccc(C)c(C)c3)C2)cc1=O (configuration not stated)	0%
COc1c[nH]c(CN2CCN(C)C3(CCC(=O)N(C)CC3)C2)cc1=O (configuration not stated)	0%
Cc1ccsc1C(=O)N1CCC2(CC1)CC(N(Cc1ccc(F)cc1)C1CC1)CCO2 (configuration not stated)	-25%
Cn1cc(Cl)cc1C(=O)N1CCCC(c2ccc(C(=O)O)cc2)C1 (configuration not stated)	7%
Cc1ccc(NC(=O)NCC2CCOCC2)c(C)c1	2%
CN1CCC(N2CCN(C(=O)CCc3ccccc3)CC2)C1=O (configuration not stated)	-9%
Cc1c(C(C)NC(=O)c2ccccc2-c2ncn[nH]2)cnn1-c1ccccn1 (configuration not stated)	6%
Cc1ccc2c(c1)N1C(=O)OC[C@@H]1CCN(C(=O)COCc1ccccc1)C2	-3%[70.6 µM]
CCn1ccc(C(=O)NC2CCCN(c3cc(-c4ccc(OC)cc4)[nH]n3)C2)n1 (configuration not stated)	0%

Compound activity from PubChem BioAssay.
